RecA splice inh = Mtb RecA intein splicing inhibition | P9WHJ3 | cell-free RecA intein splicing, fluorescence | inhibition, %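 (about 9 µM by stock and volumes)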 | actives 0.75% (n = 290,000); in the data active = inhibition above about 30%; inconclusive = no clear call, values can overlap the other calls;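 also: 0% = vehicle wells and 100% = reference inhibitor control wells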
Target sequence (P9WHJ3 whole entry, looked up, canonical isoform): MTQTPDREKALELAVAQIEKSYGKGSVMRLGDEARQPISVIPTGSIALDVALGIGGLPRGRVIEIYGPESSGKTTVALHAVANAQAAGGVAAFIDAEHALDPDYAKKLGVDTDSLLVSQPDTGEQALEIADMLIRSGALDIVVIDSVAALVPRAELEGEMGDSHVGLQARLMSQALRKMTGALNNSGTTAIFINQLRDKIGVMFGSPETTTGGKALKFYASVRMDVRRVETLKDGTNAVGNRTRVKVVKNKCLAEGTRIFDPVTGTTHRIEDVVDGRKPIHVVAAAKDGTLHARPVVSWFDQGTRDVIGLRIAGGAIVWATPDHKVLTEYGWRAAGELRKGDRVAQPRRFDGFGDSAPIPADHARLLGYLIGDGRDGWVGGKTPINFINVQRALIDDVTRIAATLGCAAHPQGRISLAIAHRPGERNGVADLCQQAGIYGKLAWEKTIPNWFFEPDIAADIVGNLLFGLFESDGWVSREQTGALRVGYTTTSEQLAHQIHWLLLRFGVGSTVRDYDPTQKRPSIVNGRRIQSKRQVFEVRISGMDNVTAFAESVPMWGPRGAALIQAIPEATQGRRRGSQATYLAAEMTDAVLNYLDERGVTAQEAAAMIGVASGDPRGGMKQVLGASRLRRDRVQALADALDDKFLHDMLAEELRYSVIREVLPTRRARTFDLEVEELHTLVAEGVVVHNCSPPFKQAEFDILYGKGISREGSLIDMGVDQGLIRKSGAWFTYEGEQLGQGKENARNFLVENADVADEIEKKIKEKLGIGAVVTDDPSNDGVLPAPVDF
Arbovirus inh = antivirals against arbovirus infection. actives 0.37% (n = 200,000). inhibition, % at 10 µM. arbovirus infection cell-based antiviral screen;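 active = inhibition from about 30%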;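 also: bluetongue infection of BSR cells; cell survival read as ATP light after 72 h; 0% = infected wells without compound and 100% = uninfected wells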
Mtb betalactam = beta-lactam sensitization of Mtb H37Rv; M. tuberculosis H37Rv growth with meropenem, percent inhibition; hits of this screen are not shown here; AID 434955; actives 0.27% (n = 330,000); inhibition, % at 25 µM;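 active = about 74% or more and at least 40 points above the plate without the antibiotic, then above 30% in a dose series; inconclusive = first-round hits that could not be retested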;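 also: growth measured after seven days incubation then overnight dye step; 0% = bacteria only wells and 100% = bacteria with antibiotic; twin plates without the antibiotic show which effects depend on it; some results filed as inactive read as strong as hits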
YopH PTP inh = inhibitors of Yersinia enterocolitica YopH tyrosine phosphatase. fluorescence Ex485/Em525. inhibition, %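 (about 10 µM by stock and volumes)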. actives 0.16% (n = 140,000). AID 898;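 active = inhibition of 50% or more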;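 also: controls were vehicle for no effect and minimum signal wells for full effect; inactives centre near -20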
Mtb growth = M. tuberculosis H37Rv growth inhibitors, H37Rv strain (AID 1626) | M. tuberculosis H37Rv growth inhibition; higher % means a stronger effect | one-dose inhibition, % at 10 µM; IC50 in µM for titrated hits | actives 0.95% (n = 220,000);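 active = confirmed in a dose series; inconclusive = inhibition above 80% but not taken into the dose series; inactive = below 80% or under 30% at every dose of the series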;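 also: bacteria incubated seven days before Alamar blue readout; 0% = bacteria only wells and 100% = bacteria with antibiotic wells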
Arbovirus inh repeat = second read-out of Arbovirus inh, no call of its own (marks repeat the call); inhibition, %; measured here: 10K subset replicate screen; many hits read low in the repeat;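 first of two repeat runs on a subset; 0% = infected and 100% = uninfected wells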
Active calls of the source: *; i = inactive; u = inconclusive; x = no result given.

SMILES | RecA splice inh | Arbovirus inh | Mtb betalactam | YopH PTP inh | Mtb growth | others
O=C(O)C(O)(c1ccccc1)C1CCCCC1 (stereo not drawn) | -1.2 | x | -1 | x | x
CC(C)CNC(=S)NNC(=O)c1ccccc1OC(F)F | -1.5 | 6 | x | -25 | -2%
COc1ccc(S(=O)(=O)NCC2CCCO2)c(Cl)c1Cl (stereo not drawn) | -1.5 | x | 0 | x | x
Cc1sc2c(c1C)c(=O)nc1n2Cc2ccccc2-1 | -2.1 | -4 | x | -7 | x
Cc1c(C)c(C)c(CN2CCCC2)c(C)c1C | 2.1 | x | -6 | x | -10%
COc1ccc(C(c2nnnn2Cc2cccs2)N2CCN(c3ccccc3F)CC2)cc1OC (stereo not drawn) | 7.3 | 2 | -2 | -34 | x
CN(CCCN1CCOCC1)C(=O)c1ccc2nc(Cc3cccc(Cl)c3)oc2c1 | 16 | x | -2 | x | x
Cc1ccc(N/C=C(/C#N)c2ccsc2)cc1C | -0.5 | -2 | 6 | -17 | 4%
O=C(CCCOc1ccccc1)Nc1nccs1 | -9.8 | -3 | 2 | -47 | -2%
O=C(c1ccccc1)N1CCN(c2ccc([N+](=O)[O-])c(N3CCOCC3)c2)CC1 | x | 0 | 2 | -17 | -8%
CCNC(=O)CN1C(=O)NC2(CCCc3cc(OC)ccc32)C1=O (stereo not drawn) | -2.1 | 1 | -1 | -15 | 7%
CCc1c(O)nc(SCC(=O)Nc2ccc(OC)cc2)n(C2CCCCC2)c1=O | 1.1 | 3 | 66 | -33 | -7%
CCNc1nc(NC(C)C)nc(N2CC(=O)N(CC(=O)OCC)C2=N)n1 | 2.0 | -2 | 0 | -21 | -6%
Cn1c2c(c(=O)n(C)c1=O)C(c1ccccc1OC(F)F)C1=C(CCCC1=O)N2 (stereo not drawn) | 0.5 | 6 | -6 | -28 | -2%
O=C(Nc1ccccc1)c1ccc2c(c1)OCCCO2 | -2.9 | x | -15 | x | x
O=C1CC(c2ccc(F)cc2)Cc2nc(N3CCOCC3)ncc21 (stereo not drawn) | 0.7 | 7 | -7 | 19 | 7%
O=C(CCc1nc2ccccc2[nH]c1=O)OCC(=O)c1ccc(Cl)cc1 | 0.9 | 4 | 1 | -15 | -2%
CC(=O)Nc1ccccc1Nc1cc(C#N)c(C#N)cc1[N+](=O)[O-] | 4.6 | x | 4 | -28 | -3%
COc1ccc(C(=O)CSc2nnnn2C)c(OC)c1 | 0.6 | 14 | -7 | x | 0%
COc1cccc(C(=O)NNC(=O)C2CCCO2)c1 (stereo not drawn) | 1.6 | x | -1 | x | x
Cc1ccc2nc(-c3ccc(NC(=S)NC(=O)CC(C)C)cc3)sc2c1 | -0.7 | 5 | -7 | 1 | 5%
CN(C)c1nc2n(c(=S)n1)CCS2 | -0.8 | -2 | -5 | -11 | 0%
CCOc1ccc2nc3cc(NCc4ccc(OC)cc4)ccc3c(N)c2c1 | i | x | 100 | x | x
O=C(/C(N=Nc1cccc(C(F)(F)F)c1)=C(/O)c1cccs1)C(F)(F)F | 5.8 | x | 46 | x | 15%
COc1ccc(OC)c(-c2csc(NC(=O)c3ccc(OCC4CCCO4)cc3)n2)c1 (stereo not drawn) | 0.9 | -8 | 30 | -24 | 11%
CCOC(=O)CSc1nnnn1-c1cccc2ccccc12 | -0.2 | -2 | 14 | -25 | -12%
CC(=O)c1cnc(SCC(=O)O)nc1C | -0.1 | 10 | 2 | x | -12%
CCOC(=O)c1cnc2ccccc2c1Nc1ccc2c(c1)OCCO2 | 7.2 | -1 | 3 | -42 | 19%
COc1ccc(C(=O)Nc2cc(OC)ccc2OC)cc1 | 0.0 | -2 | 1 | -24 | 4%
O=[N+]([O-])c1ccccc1N/N=C1\CC2CC=CC12 (stereo not drawn) | 3.1 | 13 | 1 | x | 0%
CN(CC1CCCCO1)C(=O)c1cc(COc2ccc(F)cc2Cl)on1 (stereo not drawn) | 4.4 | x | u | x | x
COc1cccc(C(c2nnnn2CC2CCCO2)N2CCN(C(=O)c3ccco3)CC2)c1OC (stereo not drawn) | 4.1 | 3 | -2 | x | 37%
COc1ccc(N2C(=O)NC(NC(=O)c3ccncc3)(C(F)(F)F)C2=O)cc1 (stereo not drawn) | 0.4 | 3 | x | -19 | 3%
Cc1ccc(CC(=O)NC2CCCc3ccccc32)cc1C (stereo not drawn) | -0.1 | x | 0 | x | x
CCOC(=O)c1ccccc1NC(=O)CSc1nc2c(c(=O)n(C)c(=O)n2C)n1C | -1.3 | 8 | x | -173 | 4%
Cn1nnnc1SCC(=O)Nc1ccc(Oc2ccc(Cl)cc2)cc1 | -1.6 | -12 | -4 | -32 | -3%
Cc1ccnc(NC(=O)C23CC4CC(CC(C4)C2)C3)c1 | 1.0 | 11 | 24 | -6 | -1%
CC(C(=O)c1ccc2ccccc2c1)N1CCCCC1 (stereo not drawn) | -1.9 | 0 | 2 | x | 3%
OCCN(Cc1ccccc1)Cc1ccc(C(F)(F)F)cc1 | -0.9 | 9 | -4 | -10 | 1%
COc1ccc(N)cc1NC(=O)CN1CCCC1 | 2.4 | x | -6 | x | x
Cc1ccc(C(=O)CN2/C(=C(\O)c3ccccc3)C(=O)c3ccccc3S2(=O)=O)c(C)c1 | 1.0 | -13 | -11 | -37 | -1%
CSc1ccccc1NC(=O)CN1CCN(Cc2ccccc2)CC1 | -3.1 | -2 | -3 | x | 8%
Cn1c(=O)c2c(nc(SCCCC#N)n2Cc2c(F)cccc2Cl)n(C)c1=O | 4.1 | -4 | -3 | -29 | 8% | Arbovirus inh repeat=2
CNc1ccccc1C(=O)OCC(=O)Nc1ccc2c(c1)OCO2 | -4.8 | x | 3 | x | x
CC(Oc1ccccc1)C(=O)Nc1nnc(S(=O)(=O)Nc2ccccc2)s1 (stereo not drawn) | 2.2 | x | 4 | x | x

6 successive entries already listed:
SMILES | RecA splice inh | Arbovirus inh | Mtb betalactam | YopH PTP inh | Mtb growth | others
COc1cccc(C(c2nnnn2CC2CCCO2)N2CCN(C(=O)c3ccco3)CC2)c1OC (stereo not drawn) | 4.1 | 3 | -2 | x | 37%
COc1ccc(N2C(=O)NC(NC(=O)c3ccncc3)(C(F)(F)F)C2=O)cc1 (stereo not drawn) | 0.4 | 3 | x | -19 | 3%
Cc1ccc(CC(=O)NC2CCCc3ccccc32)cc1C (stereo not drawn) | -0.1 | x | 0 | x | x
CCOC(=O)c1ccccc1NC(=O)CSc1nc2c(c(=O)n(C)c(=O)n2C)n1C | -1.3 | 8 | x | -173 | 4%
Cn1nnnc1SCC(=O)Nc1ccc(Oc2ccc(Cl)cc2)cc1 | -1.6 | -12 | -4 | -32 | -3%
Cc1ccnc(NC(=O)C23CC4CC(CC(C4)C2)C3)c1 | 1.0 | 11 | 24 | -6 | -1%

Other compounds.
SMILES | RecA splice inh | Arbovirus inh | Mtb betalactam | YopH PTP inh | Mtb growth | others
COc1ccccc1CNC(=O)[C@H](NC(=O)C1CCN(C(=O)[C@@H](N)CCSC)CC1)C(C)C | -2.2 | x | -7 | x | x
CC1(C)CN(c2ccccc2)N(C(=O)c2ccc(F)cc2)C1=O | x | -36 | 95 | -36 | u
O=C(NCCCn1ccnc1)c1cc(Cl)cc(Cl)c1 | -0.5 | x | 7 | x | x
O=C(NCCN1CCOCC1)c1cc(-c2cccc(Cl)c2)on1 | -1.6 | x | 5 | x | x
CCc1ccc(C2NC(=S)NC3=C2C(=O)N(c2ccccc2OC)C(c2ccc(CC)cc2)N3)cc1 (stereo not drawn) | 11 | -31 | 7 | -1 | -4%
NNC(=S)NCc1ccccc1 | -4.6 | x | 100 | x | -9%
COc1ccc(S(=O)(=O)CCC(=O)N2CCN(c3ccc(F)cc3)CC2)cc1 | 1.7 | 5 | 3 | x | 2%
CCCc1nnc(NC(=O)CCS(=O)(=O)Cc2ccccc2)s1 | 0.0 | x | 8 | x | x
COC(=O)c1cccc(NC(N)=S)c1 | -1.3 | -1 | -3 | x | 2%
O=C(CN1C(=O)c2ccc([N+](=O)[O-])cc2C1=O)Nc1nccs1 | -0.6 | 2 | 9 | x | -2%
CCN=c1scc(-c2ccco2)n1/N=C/c1ccc(OC)c(O)c1 | 2.8 | 14 | 98 | 8 | 28%
O=c1c2ccccc2nc(SCc2nnc(-c3ccccc3Br)o2)n1Cc1ccco1 | -1.5 | -4 | -3 | -26 | -7%
CCOC(=O)c1cccc(P(=O)(C(C)(C)C)C(C)(C)C)c1 | -1.0 | -2 | -1 | 2 | -2%
CCSc1oc(-c2cccs2)nc1S(=O)(=O)c1ccccc1 | 0.8 | -1 | -1 | -23 | -7%
C/C(=N\NC(=O)C1CCCC1)c1ccc(Cl)cc1 | -0.6 | x | -7 | x | x
CC1CCCN1CC#CC(O)(c1ccccc1)c1ccccc1 (stereo not drawn) | 0.6 | x | 0 | x | -6%
CCc1ccc(Nc2nnc(SCC(=O)NC(=O)c3cccn3C)s2)cc1 | -1.2 | -3 | 0 | x | 2%
COC/C=C/C1=CC2=CC(=O)C(C)(OC(=O)C3CCCC3)C(=O)C2=CO1 (stereo not drawn) | 6.0 | x | 5 | x | -4%
CCN(CC)S(=O)(=O)c1cc(-c2nnc(-c3ccc(Br)cc3)o2)ccc1Cl | -2.1 | 6 | 54 | -49 | -6% | Arbovirus inh repeat=1
CCn1c(SCC(=O)NCc2ccccc2)nnc1-c1c[nH]c2ccccc12 | 1.4 | 6 | -9 | -14 | -1%
COc1ccc(OCCCC(=O)Nc2ncn[nH]2)cc1 | 0.4 | -2 | 1 | x | 4%
Cc1ccc(N(Cc2cc3ccccc3[nH]c2=O)C(=O)c2cccs2)cc1C | -0.4 | x | 0 | x | -5%
O=C(c1ccc(Cl)c(S(=O)(=O)N2CCCCC2)c1)N1CCCC1 | 2.0 | x | -4 | x | x
CCOc1ccc(CCNC(=O)COC(=O)C2=NNC(=O)CC2)cc1OCC | -0.7 | x | -1 | x | x
Cc1ccc(-c2nc3ccccn3c2Nc2ccccc2)o1 | -2.3 | 9 | -2 | -27 | -8%
O=C(NCCN1CCOCC1)c1ccc2c(c1)N(Cc1ccccc1)C(=O)CS2 | 1.1 | 9 | 1 | -21 | -4%
CCCCn1c(=O)c(C(=O)NC(C)c2ccccc2)c(O)c2ccccc21 (stereo not drawn) | -1.1 | x | 1 | x | x
CC(=O)c1c(C)[nH]c(C(=O)COc2ccc(C#N)cc2)c1C | 0.0 | 1 | -7 | -155 | 8%
O=c1[nH]cnc2nc3n(c12)CCCCC3 | x | 1 | 2 | -43 | -3%
COc1ccc(CCn2ccc(O)c(Cc3c(F)cccc3Cl)c2=O)cc1OC | -2.0 | 9 | 0 | x | 4%
O=C(Nc1ccccc1)c1cccc(C(F)(F)F)c1 | 5.9 | 1 | -3 | -7 | 3%
CC(NC(=O)c1ccccc1)C(=O)N/N=C/c1ccco1 (stereo not drawn) | -2.8 | x | -7 | x | x
COc1cccc2c1OCC([C@@H]1C[C@H]3CN(Cc4cccc(Cl)c4)C(=O)[C@]34CCCN14)=C2 | 8.0 | 0 | 1 | x | x
Cc1cccc(NC(=O)CSc2nnc(-c3ccc(S(=O)(=O)N4CCCC4)cc3)o2)c1 | 0.0 | 1 | -9 | -37 | 5%
CCOC(=O)c1cnc2c(-c3ccccc3)cnn2c1N | -0.6 | 9 | 9 | -38 | 5%
CCOC(=O)CSc1nnc(-c2ccccc2)c(=O)[nH]1 | -0.3 | 3 | 10 | -3 | -1%
Cc1ccc(C(=O)Nc2ccc(OCc3ccccc3)cc2)cc1[N+](=O)[O-] | -0.9 | -4 | 5 | -33 | -4%
C[C@@H](C(=O)CC(=O)OC(C)(C)C)[C@@H](O)c1ccccc1 | 1.7 | x | 1 | x | x
COc1ccc(N2CCN(CC(O)COc3cc(C)ccc3C)CC2)cc1 (stereo not drawn) | 1.5 | x | 6 | x | x
CCCN1C2=NCCN2c2ccccc21 | -0.4 | 0 | -13 | -24 | 2%
CCCn1c(-c2ccc(OC)cc2)nc2ccccc21 | 4.0 | 5 | u | -25 | -2% | Arbovirus inh repeat=9
CS(=O)(=O)N(CC(=O)NCCSc1ccccn1)c1cccc2ccccc12 | 0.0 | 0 | 0 | -15 | 0%
CCOc1cc(/C=N/NC(=O)c2cc3c(ccc4ccccc43)o2)ccc1O | -2.6 | x | -4 | x | x
CCn1c(C)cs/c1=N\S(=O)(=O)c1ccccc1 | -17 | x | -5 | x | x
Cc1nnc(SCc2ccc(Cl)cc2Cl)[nH]c1=O | 1.1 | 0 | 4 | -12 | -18% | Arbovirus inh repeat=7
O=C(N1CCCCC1)C12CC3CC(CC(C3)C1)C2 | x | 2 | -4 | -18 | 7%
Cn1nnnc1SCC(=O)N1CCc2ccccc2C1 | x | 2 | -4 | -29 | 2%

High-throughput results: PubChem BioAssay, several laboratories

A portion of the library; the hit share may differ from the screen's.
